HPGD inh = HPGD (human) dehydrogenase inhibition. P15428. purified HPGD, NADH fluorescence kinetic, PGE2 substrate. Potency, µM, for the others: top-dose activity change, negative = inhibition, hits mostly inhibitors. 150,000 compounds, 4.3% hits. AID 894; active = well fitted inhibition curve with a large enough effect (not every such curve was filed as active); inconclusive = small, poorly fitted or top-dose-only effect, or another doubt; inactive = no such curve, though single readings can be large or run the other way;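 note: top concentration of the series not given in the record; plate controls included wells without enzyme; inactives centre near -10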
Target sequence (P15428 whole entry, looked up): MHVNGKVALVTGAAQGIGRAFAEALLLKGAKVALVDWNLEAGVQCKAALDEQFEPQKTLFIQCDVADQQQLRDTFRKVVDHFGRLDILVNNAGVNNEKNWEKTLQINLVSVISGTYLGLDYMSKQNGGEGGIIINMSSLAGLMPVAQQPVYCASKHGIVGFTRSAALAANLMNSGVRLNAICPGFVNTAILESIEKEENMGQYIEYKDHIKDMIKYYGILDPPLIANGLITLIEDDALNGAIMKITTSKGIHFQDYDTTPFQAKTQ
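20 nM HPGD preincubated 15 min at room temperature with compound in 50 mM Tris-HCl pH 8, 0.01% Tween 20. Started with 1 mM NAD+ and 30 uM prostaglandin E2; NADH fluorescence (360/450 nm) read 5 times over 30-s intervals, last minus first.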
Numbers without * were called inactive; & = joins results of further samples; ! = not active in a repeat. % is set by controls: 0 for no effect and ±100 for the full control effect; potency is the fitted concentration of half-maximal effect.

Screening CCCCCCCN[C@H]1CCC[C@@H]1CCCCCCC(=O)O returned HPGD inh -4%.
`CC(=O)OC(CC(=O)O)C[N+](C)(C)C` (stereo not drawn) gave HPGD inh -9%.
O=C(O)c1cc(=O)c2ccc(Cl)cc2[nH]1 was read as HPGD inh 28µM*!.
Screening COC(=O)c1cccc(S(=O)(=O)N2CCC(NC(=O)NC34CC5CC(CC(C5)C3)C4)CC2)c1 returned HPGD inh -9%.
`N#Cc1cc2c(nc1SCc1ccccc1)CCC2` gave HPGD inh -2%.
Screening O=C(CCC(=O)c1ccc(F)cc1)Nc1ccccc1Cl returned HPGD inh -20%.
For COc1cccc(C(=O)OCn2nnc3ccccc3c2=O)c1 the results were HPGD inh -5%.
`COc1ccc(C(=O)NC(=S)Nc2ccc([N+](=O)[O-])cc2C)cc1OC` gave HPGD inh -12%.
For Cc1nn(-c2ccccc2)c(Cl)c1C(=O)Nc1nnc(C2CCCCC2)s1 the results were HPGD inh -7%.
Screening COc1ccc(OC)c(NC(=O)C(=O)NNC(=O)c2cccs2)c1 returned HPGD inh -22%.
For CCCNS(=O)(=O)c1ccc(NC(=O)Cc2cccs2)cc1 the results were HPGD inh -19%.
CC(C)(C)C(=O)Nc1ccc2c(c1)-c1cc(NC(=O)C(C)(C)C)ccc1C2 was read as HPGD inh -8%.
Screening O=C1c2ccccc2-c2onc3c(Oc4ccccc4)cc(O)c1c23 returned HPGD inh -28%.
`COc1ccccc1C1CC(=O)n2c(nc(-c3ccccc3)c2-c2ccccc2)S1` (stereo not drawn) gave HPGD inh inconclusive.
For CS(=O)(=O)N1CCN(c2ccccc2NC(=O)c2ccc(Br)o2)CC1 the results were HPGD inh -7%.
For Oc1ccc2ccccc2c1CN1CCN(c2ccccc2)CC1 the results were HPGD inh inconclusive.
For Cc1ccc(CCNC(=O)C2CCCN(C(=O)N(C)C)C2)cc1 (stereo not drawn) the results were HPGD inh -4%.
C=CCN(CC=C)C(=O)Cc1ccc(F)cc1 was read as HPGD inh -7%.
Screening O=C(CSc1ncccn1)NCc1ccccc1Cl returned HPGD inh inconclusive.
For O=C(Nc1ccc(Cl)cc1)OCc1cncs1 the results were HPGD inh -28%.
`COc1ccc(CCN(Cc2cccs2)S(=O)(=O)c2ccc(S(=O)(=O)N(C)C3CCCCC3)cc2)cc1OC` gave HPGD inh -16%.
Screening CCOC(=O)c1cc(=O)c2c([N+](=O)[O-])ccc(OC)c2o1 returned HPGD inh -9%.
`CCCc1cc(=O)[nH]c(SCC(=O)c2cc(C)n(CCOC)c2C)n1` gave HPGD inh -13%.
Screening COc1cc(/C=C/c2noc(-c3ccccc3O)n2)cc(OC)c1OC returned HPGD inh inconclusive.
Screening CC1CCCCN1S(=O)(=O)c1cnc(Cl)c(Br)c1 (stereo not drawn) returned HPGD inh -22%.
`CCOC(=O)CCC(=O)N1CCOCCOCCN(C(=O)CCC(=O)OCC)CCOCCOCC1` gave HPGD inh -6%.
`Cc1ccc(SCCNC(=O)c2ccccc2C)cc1` gave HPGD inh 16µM*.
For O=C(CSc1nc2ccccc2n1CC(=O)N1CCCC1)NCc1ccc2c(c1)OCO2 the results were HPGD inh -12%.
O=S(NC1CCCCC1)C12CC3CC(CC(C3)C1)C2 (stereo not drawn) was read as HPGD inh -13%.
O=C1CCSc2ccc(Cl)cc2N1Cc1cccc(Cl)c1 was read as HPGD inh -15%.
For Cc1cccc(C(=O)NCN2CCN(c3ccccc3C#N)CC2)c1 the results were HPGD inh -27%&-15%.
O=C(NCCc1ccc(Cl)cc1)C1CCC(=O)N1Cc1ccc(F)cc1 (stereo not drawn) was read as HPGD inh 1%.
`Nc1nonc1-n1nnc(C(=O)N/N=C/c2ccccc2)c1CSc1ccc(Cl)cc1` gave HPGD inh -12%.
For Cc1ccc(-n2c(-c3c(-c4ccccc4)noc3C)n[nH]c2=S)cc1 the results were HPGD inh -11%.
For CS(=O)(=O)N1CCN(C(=O)c2cc(-c3ccncc3)nc3ccc(Cl)cc23)CC1 the results were HPGD inh -5%.
`COc1ccc(CCC(N)=O)cc1OC` gave HPGD inh -7%.
c1cc(-c2nn[nH]n2)ccc1CN1CCCCC1 was read as HPGD inh -10%.
`O=C1c2ccccc2C(Nc2cccnc2)N1Cc1ccccc1Cl` (stereo not drawn) gave HPGD inh -25%.
Screening COc1cccc(C(c2c(NC(=O)c3ccccc3)sc(C)c2C)N2CCN(C)CC2)c1 (stereo not drawn) returned HPGD inh -29%.
CC(=O)Oc1ccc(Cn2cnc3cc4ccccc4cc32)cc1 was read as HPGD inh -22%.
For O=C(O)c1c(Cl)c(Cl)c(Cl)c(Cl)c1-c1c2cc(I)c(=O)c(I)c-2oc2c(I)c(O)c(I)cc12 the results were HPGD inh 32µM*.
Cc1cc(=O)oc(C)c1C(=O)N1CCN(c2ccc(F)cc2)CC1 was read as HPGD inh -12%.
Screening COc1ccc(S(=O)(=O)N2CCOCC2)c(Cl)c1Cl returned HPGD inh -9%.
Screening C/C(=N\NC(=O)C(=O)Nc1cccc(Cl)c1C)c1ccncc1 returned HPGD inh -4%.
For CCC(C)(C)NC(=O)C(c1ccc(F)cc1)N(Cc1ccco1)C(=O)c1snc(C(N)=O)c1N (stereo not drawn) the results were HPGD inh -27%.
COC(=O)CNC(=O)Cn1cnc2sc(C)c(S(=O)(=O)N3CCC(C)CC3)c2c1=O was read as HPGD inh 0%.
COc1cccc(NC(=O)COC(=O)c2ccc(F)cc2F)c1 was read as HPGD inh 4%.
For CC1=C(C)C(c2ccccc2)NC(=S)N1 (stereo not drawn) the results were HPGD inh -14%.
Cc1ccc(CN2CC(C(=O)O)CC2=O)cc1 (stereo not drawn) was read as HPGD inh -8%.
Cc1oc(-c2ccccc2Cl)[n+]([O-])c1C was read as HPGD inh -14%.
`CC(=O)Nc1nc(CC(C)C)cc2c1c(=O)oc1ccccc12` gave HPGD inh inconclusive.
Cc1nnc(NC(=O)CSc2nnc3scc(-c4ccc(C)c(C)c4)n23)s1 was read as HPGD inh -16%.
COc1cc(C(=O)Nc2sc3c(c2C#N)CCN(C(C)=O)C3)cc(OC)c1OC was read as HPGD inh -10%.
O=C(CN1CCN(Cc2ccccc2)CC1)Nc1ccc(Cl)cn1 was read as HPGD inh 1%.
`CCOc1cc(-c2conc2N)cc(OCC)c1OCC` gave HPGD inh -28%.
`COc1ccc(CCCC(=O)NC2CCCCC2C)c(C)c1` (stereo not drawn) gave HPGD inh 3.5µM*.
`CC(C)=NN/C(N)=N/C(=S)Nc1ccc(C)cc1` gave HPGD inh -10%.
CCCOC(=O)CSC1=C(C#N)C(c2ccccc2OC)C(C#N)C(=O)N1 (stereo not drawn) was read as HPGD inh -14%.
Screening C=CCNC(=S)N/N=C(\C)c1ccc(OC)cc1 returned HPGD inh -13%.
O=C(c1ccccc1)N1CCN(c2ncnc3c2cnn3-c2ccccc2)CC1 was read as HPGD inh -8%.
Screening CCOc1ccc(NC(=O)CC2CC(C)(C)OC2=O)cc1 (stereo not drawn) returned HPGD inh -1%.
`CC(NC(=O)Nn1cnnc1)(C(F)(F)F)C(F)(F)F` gave HPGD inh -12%.
`O=c1nc2s/c(=C\c3ccc(-c4ccccc4[N+](=O)[O-])o3)c(=O)n2nc1-c1ccccc1` gave HPGD inh 7.9µM*.
Screening N#CC(c1ccccc1)N(CCCCl)C(=O)c1ccccc1 (stereo not drawn) returned HPGD inh -12%.
For CC(=O)Nc1cccc(N2C(=O)CC(N3CCC(C(=O)N4CCCCC4)CC3)C2=O)c1 (stereo not drawn) the results were HPGD inh -22%.
`COCCCNC(=O)Cn1cc2c(n1)CCC(C)C2` (stereo not drawn) gave HPGD inh -7%.
For COC(=O)c1cc2c(ccn2-c2ccc(F)cc2)n1CC(C)C the results were HPGD inh inconclusive.
CCOc1ccc2[nH]c(=O)c(C(c3nnnn3C3CCCCC3)N3CCN(CC)CC3)cc2c1 (stereo not drawn) was read as HPGD inh inconclusive.
`O=C(Nc1nc2c(s1)CCCC2)c1cccc(S(=O)(=O)N2CCCc3ccccc32)c1` gave HPGD inh inconclusive.
COc1cc2ccc(=O)oc2c(OC)c1OC was read as HPGD inh inconclusive.
Screening NCCCCCc1nnc(SCc2ccc(Cl)c(Cl)c2)o1 returned HPGD inh 0%.
`C=CCNC(=O)c1onc(CSc2ccccc2F)c1C(=O)O` gave HPGD inh -27%.
Screening CS(=O)(=O)N(CC(=O)NCc1ccc2c(c1)OCO2)Cc1ccccc1 returned HPGD inh 1%.
O=C(c1ccco1)N1CCC2(CCN(Cc3ccccc3)CC2)CC1 was read as HPGD inh 1%.
`Cc1cccc(NC(=O)CCSc2nnc(Cc3ccccc3)o2)c1` gave HPGD inh -17%.
`C/C(CC(=O)Nc1ccc(OCc2ccccc2)cc1)=N\NC(=O)C(=O)Nc1cccc(C)c1` gave HPGD inh -5%.
COc1ccc(NC(=O)CSC2=NC(=O)CC(C)=N2)cc1 was read as HPGD inh -12%.
`COc1cc(O)oc1C=Nc1ccc(C(F)(F)F)cc1` gave HPGD inh -20%.
`COc1ccc2[nH]c(=O)c(CN(Cc3nnnn3Cc3ccco3)C3CCCCC3)cc2c1` gave HPGD inh inconclusive.
For COc1ccc(OC)c(NC(=O)C(CC(C)C)NC(=O)C2CCCCC2)c1 (stereo not drawn) the results were HPGD inh -5%.
`O=C(/C=C/c1ccc(F)cc1)N1CCCN(C(=O)/C=C/c2ccc(F)cc2)CC1` gave HPGD inh -10%.
Cc1cccc(C(=O)NC2CC3CCCC(C2)N3C(=O)NC2CCCCC2)c1 (stereo not drawn) was read as HPGD inh -1%.
For Cc1scc(C(=O)Nc2ccon2)c1-c1ccccc1 the results were HPGD inh -4%.
`Cc1ccc(S(=O)(=O)Nc2ccccc2CNc2ccccn2)cc1` gave HPGD inh -6%.
Screening Cc1ccc2c(NC(=O)C3CC3)cccc2n1 returned HPGD inh -5%.
`O=c1c(Cc2ccc(F)cc2)c(O)ccn1Cc1ccc(Cl)cc1Cl` gave HPGD inh -11%.
For COC(=O)[C@H](C)NC(=O)Nc1cc(Cl)ccc1C the results were HPGD inh -10%.
Screening CCN(CC)CCCN1C(=O)c2oc3ccccc3c(=O)c2C1c1cccnc1 (stereo not drawn) returned HPGD inh -17%.
`[N-]=[N+]=NC1C[C@H](n2ccc(=O)[nH]c2=O)O[C@@H]1CO` (stereo partly drawn) gave HPGD inh -11%.
O=C(Nc1ccccc1)N1CCCC2(CCN(S(=O)(=O)c3ccccc3)CC2)C1 was read as HPGD inh -1%.
CC1CCN(C(=O)c2ccc(CSc3ccc(Cl)cc3)cc2)CC1 was read as HPGD inh 0.89µM*.
For COc1ccc2c(c1)c(C(=O)N1CCN(C)CC1)c(C)n2-c1ccccc1 the results were HPGD inh inconclusive.
`N#Cc1cnn(-c2ncnc3sc(-c4ccccc4)cc23)c1N` gave HPGD inh -7%.
Screening COC(=O)COc1ccc(S(=O)(=O)Nc2ccc3c(c2)OCO3)cc1 returned HPGD inh -10%.
For Cc1ccc(CNC(=O)C(NS(=O)(=O)c2cccs2)C(C)C)cc1 (stereo not drawn) the results were HPGD inh -15%.
Screening CCCCc1c(O)c2ccccc2n(CCCC)c1=O returned HPGD inh inconclusive.
CC1(C)[N+]([O-])=C2C(=[N+]([O-])C1(C)C)c1ccccc1/C2=N\O was read as HPGD inh -9%.
For COc1ccccc1CNC(=O)c1ccc(CNc2c(N3CCCC3)c(=O)c2=O)cc1 the results were HPGD inh -29%.
For CC(=O)C1=C(O)C=C(c2ccco2)CC1c1ccco1 (stereo not drawn) the results were HPGD inh inconclusive.
COc1ccc(-c2cc(C(F)F)n3ncc(C(=O)N4CCSCC4)c3n2)cc1 was read as HPGD inh inconclusive.
`COc1ccc(/C(N)=N/O)cc1O` gave HPGD inh -14%.
For O=C(CCC1CCCCC1)NC1=NCCS1 the results were HPGD inh -6%.
Screening Cc1onc(-c2ccccc2Cl)c1C(=O)NCc1ccco1 returned HPGD inh -12%.
Screening COc1cc(CC(=O)Nc2ccc(Cl)c(C(F)(F)F)c2)cc(OC)c1OC returned HPGD inh -14%.
Screening O=Cc1ccccc1Oc1ccccc1 returned HPGD inh 0%.
COC(=O)c1c(NC(=O)C2CC2)sc2c1CCN(C(C)=O)C2 was read as HPGD inh -21%.
`COc1ccc(CCNC(=O)CCNS(=O)(=O)c2cccc3nonc23)cc1OC` gave HPGD inh -10%.

From PubChem

These rows are one share of the data (hit frequency here may not be typical).
